FGF22 binding: binders of recombinant human FGF22 by thermal shift; SYPRO orange fluorescence; percent of sucrose octasulfate shift, DMSO zero; AID 651658; calls only at 9.99 µM; Q9HCT0; 340,000 compounds, 1.5% hits;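 active means melting point raised past a set limit in the mean and every replicate; three in four hits are not shown here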
Target sequence (Q9HCT0 whole entry, looked up): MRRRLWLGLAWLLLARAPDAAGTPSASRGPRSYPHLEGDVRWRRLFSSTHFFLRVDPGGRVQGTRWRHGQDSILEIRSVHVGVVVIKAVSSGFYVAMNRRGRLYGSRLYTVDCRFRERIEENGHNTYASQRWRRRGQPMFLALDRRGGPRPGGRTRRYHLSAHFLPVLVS
Ecoli rRNA inh: selective bacterial rRNA inhibition in E. coli. GFP signal change (wild-type ribosome), % (test concentration not listed). E. coli WT GFP vs humanized-ribosome RFP mutants, fluorescence, 24 h; hits give low values; DMSO median 0, no signal -100. 350,000 compounds, 1.6% hits;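 active means significant combined selectivity score with lowered wild-type GFP, culture density cut under 30%, mutant RFP and density less affected; inactive means any of these conditions unmet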; further: one replicate is shown; some compounds called inactive have numbers as strong as hits
MLL AF4-AF9 inh: inhibitors of human MLL-AF4/AF9 interaction; 350,000 compounds, 0.47% hits; AlphaScreen, biotin-AF4 peptide binding to FLAG-AF9; inhibition, % at 10 µM;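 active means every replicate reaching a set inhibition limit, whatever the replicate mean, cut at about 25% in these data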;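 further: 0% = plate neutral control median and 100% = total signal loss; the record names both 10 and 1 µM as test concentration; the first replicate is given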
Target sequence (P42568 whole entry, looked up): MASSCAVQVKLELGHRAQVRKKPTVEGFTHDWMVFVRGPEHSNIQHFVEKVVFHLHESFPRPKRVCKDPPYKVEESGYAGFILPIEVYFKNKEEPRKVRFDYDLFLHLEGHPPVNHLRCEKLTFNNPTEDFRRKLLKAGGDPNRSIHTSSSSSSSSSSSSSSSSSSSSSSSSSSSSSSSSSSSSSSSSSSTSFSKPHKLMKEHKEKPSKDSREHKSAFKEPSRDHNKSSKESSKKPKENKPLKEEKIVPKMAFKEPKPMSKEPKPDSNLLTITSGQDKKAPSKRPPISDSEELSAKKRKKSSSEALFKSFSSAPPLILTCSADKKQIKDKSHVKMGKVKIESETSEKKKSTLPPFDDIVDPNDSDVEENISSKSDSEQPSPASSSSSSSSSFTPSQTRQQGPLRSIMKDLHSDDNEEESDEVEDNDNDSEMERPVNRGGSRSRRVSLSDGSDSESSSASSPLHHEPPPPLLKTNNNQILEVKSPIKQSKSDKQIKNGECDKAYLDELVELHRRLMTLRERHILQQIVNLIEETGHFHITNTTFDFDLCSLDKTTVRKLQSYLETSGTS
Ecoli rRNA inh OD600: second read-out of Ecoli rRNA inh, no call of its own (marks repeat the call); OD600 change, %; measured here: OD600 growth;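 optical density of the mix in the first replicate; 0 = DMSO median and -100 = no signal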
Ecoli rRNA inh RFP: recorded beside Ecoli rRNA inh, whose call it bears; RFP signal change, %; measured here: RFP humanized mutant strains;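 first replicate; 0 = DMSO median and -100 = no signal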
The depositor's hits bear a star; i = inactive; · = no result given; & = joins results of further samples. Some of the compounds tested; the hit share may differ from the screen's.

FGF22 binding,Ecoli rRNA inh,Ecoli rRNA inh OD600,Ecoli rRNA inh RFP,MLL AF4-AF9 inh,SMILES
i,7.6,10.0,-2.1,-2.5,Cc1ccccc1C(=O)NC1CC2CCCC(C1)N2CC(C)C (centres undefined)
i,4.0,8.9,-3.2,-0.3,CC(c1ccon1)N(C)C(=O)c1cccc(OC2CCN(S(C)(=O)=O)CC2)c1 (centres undefined)
i,10.0,19.5,-1.8,1.7,CCc1ccc([C@@H]2C[C@H]3[C@@H](CN2S(=O)(=O)c2ccc(C)cc2)C(=O)C[C@@H](c2ccc(Cl)cc2)N3S(=O)(=O)c2ccccc2C)cc1
i,-2.2,3.0,-1.2,1.3,COc1ccc2c3c(n(C)c2c1)[C@@H](CO)N(C)CC31CN(C(=O)c2ccccc2F)C1
i,2.3,2.4,-2.6,-0.5,CO[C@@H]1CN(C)C(=O)c2cc(NS(=O)(=O)c3c(C)noc3C)ccc2OC[C@H](C)NC[C@@H]1C
i,-1.3,-5.1,-0.6,-1.3,O=C(CCN1CCCCC1)NCC[C@@H]1CC[C@H](NC(=O)c2ccc(F)cc2)[C@H](CO)O1
i,1.3,8.6,0.0,-4.3,O=C(Cc1ccccn1)N1CC2(C1)[C@@H](c1ccccc1)[C@H](CO)N2C(=O)c1ccncc1
i,-4.7,-13.8,-0.8,-1.6,CCCN1[C@@H]2Cn3c(ccc(/C=C/c4ccccc4)c3=O)[C@H]1[C@@H](C(=O)NCc1ccccn1)[C@@H]2CO
i,-1.9,-0.4,3.3,1.8,COC(=O)c1ccc(NS(=O)(=O)c2c(C)nc3sccn3c2=O)cc1
i,12.4,15.0,-1.9,-0.8,CS(=O)(=O)N1CCC(C(=O)Nc2ccc(Cl)cc2Cl)CC1
i,-5.4,-35.0,14.0,-3.3,C[C@H]1CCCCO[C@H](CN(C)Cc2ccncc2)[C@@H](C)CN([C@@H](C)CO)C(=O)c2cc(NC(=O)Nc3ccc(C(F)(F)F)cc3)ccc2O1
i,2.9,2.1,0.8,3.1,C[C@@H]1CN([C@H](C)CO)C(=O)c2cc(C#Cc3ccc(F)cc3)cnc2O[C@H]1CN(C)Cc1ccccn1
i,1.9,17.6,0.8,-2.5,Cc1nn(C)cc1NC(=O)C[C@@H]1CC[C@@H]2[C@@H](COc3ccc(NC(=O)c4cccc(F)c4)cc3C(=O)N2C)O1
i,24.2,10.6,-1.4,2.8,O=C(Nc1ccc2c(c1)OCCO2)C(c1cc2ccccc2o1)N1CCC(Cc2ccccc2)CC1 (centres undefined)
i,26.8&0.2,21.8&-0.4,4.1&-1.9,-0.3&-2.8,C[C@H](CO)N1C[C@H](C)[C@H](CN(C)C(=O)Nc2ccc3c(c2)OCCO3)OCc2cnnn2CCCC1=O

Next section.
FGF22 binding,Ecoli rRNA inh,Ecoli rRNA inh OD600,Ecoli rRNA inh RFP,MLL AF4-AF9 inh,SMILES
i,2.8,2.4,-0.7,0.7,O=C(C[C@H]1C[C@H]2c3cc(NC(=O)CC4CC4)ccc3O[C@H]2[C@@H](CO)O1)NCc1ccccc1F
i,-6.0,-11.8,0.2,-0.4,CCCc1nc2c(C)cc(Br)cn2c1Cc1ccccc1C(F)(F)F
i,18.0,-17.9,-1.3,0.5,CCOC(=O)C1=C[C@@H](C(C)(C)C)N(S(=O)(=O)c2ccc(C)cc2)[C@H]1c1ccccc1Cl
i,-7.5,10.8,-4.2,-2.0,COCC(=O)N1[C@H](C#N)[C@H](c2ccccc2)[C@@H]1CO
i,-2.2,-3.6,-1.5,-1.3,C[C@H](CO)N1C[C@H](C)[C@H](CN(C)C(=O)Nc2ccc(C(F)(F)F)cc2)Oc2ccc(NS(C)(=O)=O)cc2C1=O
i,1.0,1.4,-1.2,0.0,COc1ccc(S(=O)(=O)N(C)C[C@H]2Oc3cc(C4=CCCC4)ccc3S(=O)(=O)N([C@H](C)CO)C[C@H]2C)cc1
i,-1.2,-17.4,0.3,3.9,C[C@H](CO)N1C[C@H](C)[C@@H](CN(C)Cc2ccccn2)Oc2cc(-c3cccnc3)ccc2S1(=O)=O
i,-2.5,-11.9,3.8,3.2,COc1cccc(S(=O)(=O)N(C)C[C@@H]2OCc3ccccc3-c3ccccc3C(=O)N([C@@H](C)CO)C[C@@H]2C)c1
i,3.0,10.6,3.2,-0.7,CC(C)NC(=O)N(C)C[C@@H]1Oc2cc(C#CCN(C)C)ccc2S(=O)(=O)N([C@@H](C)CO)C[C@H]1C
i,5.1,-3.6,4.0,-4.2,Cc1noc(C)c1S(=O)(=O)Nc1ccc2c(c1)C(=O)N([C@H](C)CO)C[C@@H](C)[C@H](CN(C)Cc1ccccc1)OCCCC[C@H](C)O2
i,0.6,9.8,-2.1,-0.6,C[C@@H]1CN([C@@H](C)CO)C(=O)c2cc(C#CC3CC3)cnc2O[C@@H]1CN(C)C(=O)Nc1ccc(F)cc1
i,-7.0,-15.6,3.0,-2.3,C[C@@H]1CN([C@H](C)CO)C(=O)Cc2cc(NS(=O)(=O)c3cccs3)ccc2O[C@@H]1CN(C)Cc1ccc2c(c1)OCO2
i,5.4,8.9,-0.9,1.1,CCCNC(=O)C1(C)CCN(C(=O)c2ccccc2F)C1 (centres undefined)
i,2.7,-7.4,-1.2,-4.0,C[C@H]1CN([C@@H](C)CO)C(=O)c2cccc(NC(=O)NC3CCCCC3)c2O[C@H]1CN(C)Cc1ccc(C(=O)O)cc1
i,-1.7,3.0,2.4,3.5,Cc1ccc(S(=O)(=O)N(C)CC(=O)N(C)CCOc2ccccc2)cc1

(continued)
FGF22 binding,Ecoli rRNA inh,Ecoli rRNA inh OD600,Ecoli rRNA inh RFP,MLL AF4-AF9 inh,SMILES
i,1.9,16.3,0.0,-2.8,C[C@H]1CN([C@@H](C)CO)C(=O)Cc2cc(NC(=O)C3CCCCC3)ccc2O[C@@H]1CN(C)C(=O)Nc1ccccc1
i,1.5,7.9,5.7,2.1,COc1ccc(S(=O)(=O)Nc2ccc3c(c2)C(=O)N([C@@H](C)CO)C[C@H](C)[C@H](CN(C)S(=O)(=O)c2cccs2)OCCCC[C@H](C)O3)cc1
i,-5.7,-31.8,8.6,-1.2,N#C[C@H]1[C@H](c2ccc(-c3cccc(F)c3)cc2)[C@H](CO)N1S(=O)(=O)c1cccc(F)c1
i,-5.8,5.7,4.1,-2.9,COc1ccc(S(=O)(=O)N2CC[C@@H]3[C@H]2c2cc(-c4cccc(C#N)c4)ccc2N[C@@H]3CO)cc1
i,-4.3,-7.5,1.4,2.5,CC(C)C#Cc1ccc2c(c1)O[C@@H](CN(C)C(=O)Nc1ccccc1)[C@@H](C)CN([C@H](C)CO)S2(=O)=O
i,6.1,4.0,-0.3,-0.4,O=C(NCc1ccccc1Cl)c1csc(COCCO)n1
i,1.0,-8.5,1.6,-3.3,COCC(=O)N(C)C[C@H]1Oc2cc(C#C[C@H](C)O)ccc2S(=O)(=O)N([C@@H](C)CO)C[C@H]1C
i,0.6,-4.6,-0.4,-0.5,CN(C)c1ccc2c(c1)[C@@H]1C[C@@H](CC(=O)NCc3cccc(F)c3)O[C@H](CO)[C@@H]1O2
·,11.7,3.4,0.9,1.1,Cc1ccccc1S(=O)(=O)N1CCCc2nc(-c3ccc(Br)cc3)ccc21
i,5.2,8.3,1.0,-4.1,Cc1ccc(S(=O)(=O)Nc2ccc3c(c2)C(=O)N([C@H](C)CO)C[C@H](C)[C@H](CN(C)C)O3)cc1
i,-0.9,-0.4,-1.6,-4.0,C[C@@H]1CCCCO[C@H](CN(C)C(=O)Nc2ccccc2)[C@@H](C)CN([C@H](C)CO)C(=O)c2cc(NS(=O)(=O)c3cccs3)ccc2O1
i,4.4,6.3,-2.1,-4.5,Cc1noc(C)c1S(=O)(=O)Nc1cccc2c1O[C@@H](CN(C)CC1CC1)[C@@H](C)CN([C@@H](C)CO)C2=O
i,-2.9,-5.7,-3.4,-0.9,CNC[C@H]1Oc2c(NS(=O)(=O)c3ccc(C)cc3)cccc2C(=O)N([C@H](C)CO)C[C@H]1C
i,2.2,7.4,0.5,19.3,CN(C)CC#Cc1ccc([C@H]2[C@H]3CN(CC4CC4)CCCCN3[C@H]2CO)cc1
i,-1.2,5.3,0.8,-1.5,CN1C(=O)c2cc(NS(=O)(=O)c3cccc(F)c3)ccc2OC[C@@H]2O[C@H](CC(=O)O)CC[C@H]21

4 compounds from above, reduced to Ecoli rRNA inh RFP and MLL AF4-AF9 inh:
compound,Ecoli rRNA inh RFP,MLL AF4-AF9 inh
O=C(NCc1ccccc1Cl)c1csc(COCCO)n1,-0.3,-0.4
CC(C)C#Cc1ccc2c(c1)O[C@@H](CN(C)C(=O)Nc1ccccc1)[C@@H](C)CN([C@H](C)CO)S2(=O)=O,1.4,2.5
Cc1ccccc1S(=O)(=O)N1CCCc2nc(-c3ccc(Br)cc3)ccc21,0.9,1.1
C[C@H]1CN([C@@H](C)CO)C(=O)Cc2cc(NC(=O)C3CCCCC3)ccc2O[C@@H]1CN(C)C(=O)Nc1ccccc1,0.0,-2.8

Following part
FGF22 binding,Ecoli rRNA inh,Ecoli rRNA inh OD600,Ecoli rRNA inh RFP,MLL AF4-AF9 inh,SMILES
i,-2.4,-5.2,0.2,4.9,C[C@@H]1CN([C@@H](C)CO)C(=O)c2cccc(NC(=O)Nc3ccc4c(c3)OCO4)c2O[C@H]1CN(C)S(=O)(=O)c1ccc(Cl)cc1
i,4.5,5.3,1.5,-2.8,Cc1ccc(S(=O)(=O)N2C[C@]3(O)C[C@@H]4C(=O)N(c5ccccc5)C(=O)[C@@H]4C[C@]3(OC(=O)Nc3c(C)noc3C)C2)cc1
i,-24.4,-47.8,-15.9,0.0,O=C(c1ccccc1)c1ccsc1C(=O)c1ccccc1
i,-4.2,-8.8,-0.6,0.1,C[C@@H]1CCCCO[C@@H](CN(C)S(=O)(=O)c2cccs2)[C@H](C)CN([C@H](C)CO)C(=O)c2cc(NC(=O)CCC(F)(F)F)ccc2O1
i,3.7,17.6,-1.0,-0.4,CCc1ccc(C=C2SC(=S)N(CCCC(=O)Nc3ccc(C(=O)O)cc3)C2=O)cc1
i,2.4,6.6,-3.8,6.1,COc1ccc2c3c(n(C)c2c1)[C@@H](CO)N(C(=O)C1CCC1)CC31CN(C(=O)CN(C)C)C1
i,-4.0,4.6,2.6,2.0,O=C(Cn1cc(COc2ccc3ccc(=O)oc3c2)nn1)c1ccc(O)cc1
i,2.5,3.6,-0.2,-3.1,C[C@H](CO)N1C[C@H](C)[C@@H](CN(C)C(=O)Cc2ccccc2)OCCCC[C@H](C)Oc2ccc(NC(=O)CCCN(C)C)cc2C1=O
i,2.1,-1.0,-1.3,-0.5,COc1ccc(S(=O)(=O)Nc2cccc3c2O[C@@H](CN(C)CC2CCCCC2)[C@@H](C)CN([C@@H](C)CO)C3=O)cc1
i,5.6,8.9,-1.6,-3.6,C[C@H](CO)N1C[C@H](C)[C@@H](CN(C)C(=O)C2CCC2)Oc2ncc(C#CC3(O)CCCC3)cc2C1=O
i,-1.3,2.0,0.7,-6.2,C[C@H](CO)N1C[C@H](C)[C@@H](CN(C)C(=O)Nc2ccc(F)cc2)Oc2c(NC(=O)Nc3ccc(F)cc3)cccc2C1=O
i,-5.2,-26.6,22.6,-4.0,COc1ccccc1NC(=O)N[C@@H]1C=C[C@@H](CC(=O)N2CCC(Cc3ccccc3)CC2)O[C@@H]1CO
i,5.0,1.8,2.2,-0.5,O=C(Cc1ccccn1)NCC[C@@H]1CC[C@H](NS(=O)(=O)c2ccc(Cl)cc2)[C@@H](CO)O1
i,-0.6,3.0,-1.3,-0.9,CC(C)NC(=O)C1(C)CCN1C(=O)c1c(F)cccc1F (centres undefined)
i,-10.2,-20.6,3.6,1.6,C/C(=N\NC(=O)c1cccc(S(=O)(=O)Nc2ccc(C)cc2C)c1)c1ccncc1

(next part)
FGF22 binding,Ecoli rRNA inh,Ecoli rRNA inh OD600,Ecoli rRNA inh RFP,MLL AF4-AF9 inh,SMILES
i,4.5,3.5,0.2,1.6,CNC[C@@H]1Oc2cc(-c3ccc(C(=O)N(C)C)cc3)ccc2S(=O)(=O)N([C@H](C)CO)C[C@H]1C
i,-1.1,-5.1,-4.0,0.9,O=C(C[C@@H]1CC[C@@H]2[C@H](COC[C@@H](O)CN2Cc2cc(F)ccc2F)O1)N[C@@H]1CCN(Cc2ccccc2)C1
i,-58.3,-77.6,-22.5,6.0,N#Cc1c(N)[nH]c(C(=O)c2ccccc2)c1-c1ccccc1Br
i,2.6,4.7,-1.3,-0.7,COCC(=O)Nc1ccc2c(c1)C(=O)N(C)[C@H]1CC[C@H](CC(=O)NCC(F)(F)F)O[C@H]1CO2
i,-28.1,-29.4,-2.0,3.2,CCN(CC)C(=O)C1=C(C)N(Cc2ccccc2)C(=O)C(CC(=O)NCC2CCCCC2)C1 (centres undefined)
i,-2.7,8.8,-1.9,5.0,O=C(Nc1ccccc1)N1CCCCN2[C@H](CO)[C@H](c3ccc(C#Cc4ccccn4)cc3)[C@H]2C1
i,-3.3,-4.4,1.0,0.3,C[C@@H]1CN([C@@H](C)CO)C(=O)c2cccc(NS(=O)(=O)c3cccs3)c2O[C@@H]1CN(C)S(=O)(=O)c1ccc(F)cc1
i,-2.3,-8.9,-0.1,-1.3,CC(C)NC(=O)N(C)C[C@@H]1OCCCC[C@H](C)Oc2ccc(NS(=O)(=O)c3ccccc3)cc2C(=O)N([C@H](C)CO)C[C@@H]1C
i,-53.6,-76.2,-11.3,7.0,CCCCc1c(-c2ccccc2OC)ncn1Cc1cccc(F)c1

Compound activity deposited in PubChem by Broad Institute.
